Bioassay records: PubChem, National Center for Advancing Translational Sciences (NCATS)
D2 potentiator: positive allosteric modulators of human D2 dopamine receptor; DiscoveRx D2 beta-arrestin cells, luminescence, 90 min; 100% = 57 uM dopamine signal; potentiation, % (no concentration beside the values); 360,000 tested, 0.23% active; AID 624464; active = potentiation of 50% or more; inconclusive = 30% to 50%; inactive = 30% or less;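 further: compound concentration not given in the record; tested on top of an EC20 dose of dopamine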
Target sequence (P14416 whole entry, looked up): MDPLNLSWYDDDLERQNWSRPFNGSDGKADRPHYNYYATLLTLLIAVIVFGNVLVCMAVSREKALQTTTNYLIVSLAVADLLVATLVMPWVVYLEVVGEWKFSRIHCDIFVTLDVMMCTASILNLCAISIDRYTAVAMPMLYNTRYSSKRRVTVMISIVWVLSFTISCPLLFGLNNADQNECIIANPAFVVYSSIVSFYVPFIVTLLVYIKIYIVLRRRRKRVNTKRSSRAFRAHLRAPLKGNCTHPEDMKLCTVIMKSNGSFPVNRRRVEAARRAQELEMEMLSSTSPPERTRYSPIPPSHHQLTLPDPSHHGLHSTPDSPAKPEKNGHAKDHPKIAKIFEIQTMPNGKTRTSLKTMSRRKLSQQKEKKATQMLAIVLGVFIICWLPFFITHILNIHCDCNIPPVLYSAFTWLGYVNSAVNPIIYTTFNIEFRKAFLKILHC
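D2 cells co-treated with compound plus 50 nM dopamine (EC20) for 90 min at 37 deg C to detect potentiation. Beta-arrestin recruitment was read as enzyme-fragment luminescence after 1 h at ambient temperature. Full response was set by 57 uM dopamine.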
TRPML1 agonist: activates the human TRPML1 channel | Q9GZU1 | TRPML1-expressing cells, Ca2+ dye fluorescence, FDSS; host cell line not named in the record; reference of the full effect not given here | activation, % (test concentration not listed) | 410,000 tested, 0.12% active; in the data active = activation above about 50%; inconclusive = about 30% to 50%; inactive = below about 30%; further: 0% is about no effect; the text of the record puts the active cut at 80%
Target sequence (Q9GZU1 whole entry, looked up): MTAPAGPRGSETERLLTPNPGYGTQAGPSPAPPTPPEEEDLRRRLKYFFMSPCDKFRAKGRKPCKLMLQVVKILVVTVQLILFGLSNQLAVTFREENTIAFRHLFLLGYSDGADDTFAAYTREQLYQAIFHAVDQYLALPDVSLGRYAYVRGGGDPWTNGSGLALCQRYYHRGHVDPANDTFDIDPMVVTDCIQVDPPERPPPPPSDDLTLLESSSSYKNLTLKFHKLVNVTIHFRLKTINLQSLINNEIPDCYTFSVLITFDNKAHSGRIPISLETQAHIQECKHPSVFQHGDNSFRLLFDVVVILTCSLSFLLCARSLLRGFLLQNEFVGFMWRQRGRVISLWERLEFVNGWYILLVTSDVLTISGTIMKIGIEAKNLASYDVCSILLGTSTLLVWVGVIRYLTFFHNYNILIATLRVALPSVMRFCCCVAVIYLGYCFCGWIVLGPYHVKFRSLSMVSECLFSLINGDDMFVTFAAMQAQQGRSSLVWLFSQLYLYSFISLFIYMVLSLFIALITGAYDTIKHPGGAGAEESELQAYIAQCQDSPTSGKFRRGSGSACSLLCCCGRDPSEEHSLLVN
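In this qHTS format, compounds were pin-transferred onto Ca8-dye-loaded TRPML1-DL cells induced with Tet overnight, and intracellular Ca2+ fluorescence was recorded kinetically for 110 s after a 10 s baseline. A subsequent 4uM final 54-4 (EC80) addition followed by a second 110 s read served as the antagonist phase.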
D2 agonist: human D2 receptor agonism in beta-arrestin assay | activation, % (concentration not given with the values) | 360,000 tested, 0.084% active | P14416 | DiscoveRx PathHunter D2 beta-arrestin, luminescence, 90 min; 100% = 57 uM dopamine signal | AID 624465; in the data active = activation above about 40%; inconclusive = about 15% to 40%; inactive = below about 15%; further: compound concentration not given in the record; the text of the record calls up to 30% inactive
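DiscoveRx PathHunter D2 beta-arrestin cells (2,100/well) attached overnight, then compound-stimulated 90 min at 37 C in HBSS/10 mM HEPES/0.1% Tween-20 buffer; beta-galactosidase complementation read by luminescence after 1 h at ambient temperature. Dopamine 57 uM final (EC100) as control.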
Six1-Eya2 blk: blocks human Six1 binding to Eya2. AlphaScreen GST-Six1/His-Eya2 binding, biochemical; active compounds read low; control for the full effect not named in the record. activity change, % (test concentration not listed). 360,000 tested, 0.56% active. AID 651725; in the data active = activity change below about -65%; inconclusive = about -30% to -65%; inactive = above about -30%; further: on the % scale 0 is the no-effect control and ±100 the full control effect
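Compounds are tested against tagged Six1 and Eya2 proteins bridged by glutathione donor and nickel acceptor beads; after a one-hour incubation at 37 °C without light, AlphaScreen emission is recorded.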
PINK1 expr mod: modulators of PINK1 expression; 410,000 tested, 0.2% active; PINK1 immunofluorescence, high-content cytometry, 24 h; Potency, µM (titrated, usually from 76.6 µM), without a hit: at the highest dose activation (PINK1 increase), most hits filed as activators; AID 624263; active = well fitted activation curve with a large enough effect; inconclusive = small, poorly fitted or top-dose-only effect; inactive = flat fitted curve, though single readings scatter; cell line not stated here;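 further: potency means the concentration at half of the fitted maximal effect; % of control where 0% means no effect; nearly all actives have a fitted effect of over 65% in size; a mitochondrial uncoupler was the plate control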
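PINK1 protein level read as immunofluorescence by microplate cytometer in a fixed, stained stable cell line after 24 h exposure to five compound concentrations, with CCCP as control.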
CtBP-E1A blk: blocks the CtBP interaction with E1A; AlphaScreen GST-E1A/His-CtBP binding, 1536-well; active compounds read low; control for the full effect not named in the record; activity change, % (concentration not given with the values); 340,000 tested, 0.49% active; in the data active means activity change below about -65%; inconclusive means about -30% to -65%; inactive means above about -30%; further: on the % scale 0 is the no-effect control and ±100 the full control effect
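Protein mix (5X: 125 nM each GST-E1A, His-CtBP) was incubated with pinned compound 2 h at 37 deg C in dark, in 50 mM Tris pH 8.0 buffer with 300 mM NaCl. Glutathione donor and nickel acceptor beads followed; AlphaScreen signal read after 1 h.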
* = called active by the depositor; ? = inconclusive; . = not tested or not shown; & = joins results of further samples; [ ] = dose if it differs, or a comment. Compounds were not picked by outcome. About 1.3% of those tested had a hit in this group.

#	SMILES	D2 potentiator	TRPML1 agonist	D2 agonist	Six1-Eya2 blk	PINK1 expr mod	CtBP-E1A blk
1	Cc1ccccc1CNC(=O)Nc1cccs1	-24	-1.0	-2.6	-4	-0.1%	-3
2	O=S1(=O)N=C(N/N=C/C=C/c2ccccc2)c2ccccc21	-12	1.1	0.0	-12	-0.8%	-19
3	CC(C)NC(=O)CN(Cc1ccc(F)cc1)C(=O)CCC(=O)Nc1ccccn1	7	0.0	-0.6	7	1.2%	-4
4	Cc1cccc(NC(=S)N(CCN(C)C)Cc2cc3cccc(C)c3[nH]c2=O)c1	-7	0.1	0.1	-2	1.5%	0
5	COc1ccc2c(c1)[C@H]1[C@H](CO2)[C@H](c2ccccc2)[C@]2(C)C(=O)Nc3cc(OC)c(OC)cc3C(=O)N12	-11	0.0	-1.4	-18	2.6%	-8
6	COc1cc(NC(=S)Nc2ccccn2)cc(OC)c1OC	-3	0.0	-2.3	0	2.2%	-2
7	COc1ccc(OCCN(C)Cc2ccccc2)cc1	-19	-0.2	-2.9	0	-0.2%	0
8	O=C1NCC(Nc2ccc(Cl)cc2)C(=O)N1 (stereo not given)	-2	-0.4	-0.2	7	-0.6%	2
9	Cc1ccc(NC(=O)COC(=O)CN2CCSC2=O)cc1Cl	-11	-0.4	-0.4	3	1.9%	3
10	COc1ccc(C2=NN(c3ccc(C=O)cc3)C(c3ccccc3)C2)cc1 (stereo not given)	-4	2.0	-4.0	70	0.3%	89
11	O=C(O)Cc1ccc(N=Nc2c(O)c(C(=O)O)cc3ccccc23)cc1	-3	-1.7	-3.6	?	-1.0%	-11
12	COc1ccc2c(c1)CCCC21NC(=O)N(CC(=O)c2cc(F)ccc2F)C1=O (stereo not given)	4	-1.1	-2.1	-1	0.1%	.
13	O=C(Nc1ccon1)c1cnc2sccn2c1=O	0	-0.1	-4.2	-2	-1.4%	-2
14	COc1ccc(-c2csc3nc(C)n(-n4cccc4)c(=O)c23)cc1OC	9	0.1	0.2	-1	.	6
15	O=C(CSCc1ccc(Cl)cc1)NN=C1CCCCCC1	-17	0.0	-2.3	1	0.2%	10

Retrieved by structure from the list above (five):
#	SMILES	D2 potentiator	TRPML1 agonist	D2 agonist	Six1-Eya2 blk	PINK1 expr mod	CtBP-E1A blk
14	COc1ccc(-c2csc3nc(C)n(-n4cccc4)c(=O)c23)cc1OC	9	0.1	0.2	-1	.	6
7	COc1ccc(OCCN(C)Cc2ccccc2)cc1	-19	-0.2	-2.9	0	-0.2%	0
6	COc1cc(NC(=S)Nc2ccccn2)cc(OC)c1OC	-3	0.0	-2.3	0	2.2%	-2
10	COc1ccc(C2=NN(c3ccc(C=O)cc3)C(c3ccccc3)C2)cc1 (stereo not given)	-4	2.0	-4.0	70	0.3%	89
1	Cc1ccccc1CNC(=O)Nc1cccs1	-24	-1.0	-2.6	-4	-0.1%	-3

Single entries from the entries so far.
Reading of no. 15 in D2 potentiator: -17
Reading of no. 8 in PINK1 expr mod: -0.6%
Reading of no. 14 in CtBP-E1A blk: 6

(more compounds)
#	SMILES	D2 potentiator	TRPML1 agonist	D2 agonist	Six1-Eya2 blk	PINK1 expr mod	CtBP-E1A blk
16	Cn1c(Cc2nc3ccccc3n2C)nc2ccccc21	-5	-0.1	-2.0	9	0.4%	5
17	C/C(=N\NC(=O)C1CCCC1)c1ccc(Cl)cc1	1	-0.9	-4.6	0	-1.4%	2
18	O=C(Nc1nnc(Cc2ccc(Cl)cc2)s1)C1CCCO1 (stereo not given)	-3	0.1	-4.1	-1	-0.3%	9
19	COc1ccc(NC(=O)CCNS(=O)(=O)c2ccc(C)c(C)c2)cc1OC	-8	1.6	1.9	2	2.0%	-19
20	CC1CCN(c2ccc3nnc(CCC(=O)Nc4ccc(F)c(F)c4)n3n2)CC1	-7	2.2	0.9	-1	3.3%	.
21	CCOc1ccccc1N(CC(=O)NC(C)(C)C)C(=O)CCC(=O)Nc1nccs1	-1	-0.9	-1.3	-2	0.1%	.
22	CCN(Cc1cc(=O)[nH]c2ccccc12)C(=O)C(C)C	-1	3.3	-0.9	17	-0.3%	2
23	CCN(CC)S(=O)(=O)c1ccc(C(=O)NC(=S)N2CCCCC2C)cc1 (stereo not given)	-22	0.1	-1.5	-5	1.4%	9
24	COc1ccc(-c2cc(C(=O)O)sc2C)cc1	2	-0.9	-4.6	24	1.9%	19
25	CNC(=O)N(O)C1N(/N=C/c2ccc(SC)cc2)C(=S)SC1(C)C (stereo not given)	-6	1.8	6.6	-1	-0.6%	-6
26	CC1CC(C)(C)NC(C)c2ccccc21 (stereo not given)	-2	0.8	-3.0	10	-3.5%	2
27	O=C(Nc1nccc(-c2cccs2)n1)c1cccs1	-13	-0.4	-8.1	-15	6.3%	-14
28	NC(=O)CC(NC(=O)Cc1ccc(Br)cc1)c1ccc(N2CCN(c3ccccc3)CC2)c([N+](=O)[O-])c1 (stereo not given)	1	0.2	-0.5	3	-0.9%	4
29	Cc1[nH]nc(C(F)(F)F)c1CCC(=O)NC1CCCCCC1	-1	2.2	-1.8	2	0.7%	-12
30	Cc1c(Cl)cccc1NC(=S)N(Cc1cccnc1)Cc1ccccc1Cl	-11	0.0	-1.2	-7	0.6%	8
31	CC(C)(C)NC(=O)/C(=C\c1ccccc1F)NC(=O)c1ccc([N+](=O)[O-])cc1	1	2.0	-0.2	2	-0.7%	1
32	O=C(NC(=S)Nc1ccc(S(=O)(=O)Nc2nccs2)cc1)C1CC1	-5	0.5	-1.0	1	-0.1%	3
33	CCCCC(=O)Nc1ccc(C(=O)N2CCC(C(=O)OCC)CC2)cc1	-12	-0.3	0.5	4	.	4
34	COc1cccc(C(=O)OCC(=O)Nc2cc(C)c(C)cc2[N+](=O)[O-])c1	-6	2.0	0.9	-10	0.9%	-17
35	O=C(Nc1ccc(N=Nc2ccccc2)cc1)c1cccc(Cl)c1	4	0.1	2.1	-2	20%[38.3 µM]	-1
36	COc1ccc(/C=N/NC(=O)COc2cccc3cccnc23)cc1OC	0	-1.3	-3.1	-15	-0.3%	-2
37	N=c1n(CCN2CCCCC2)c2ccccc2n1CC(O)c1cccc(Br)c1 (stereo not given)	-32	-0.8	-6.7	-5	-0.7%	-4
38	Cc1ncc([N+](=O)[O-])n1CC(=O)NC1CCCCCC1	-3	-0.3	0.7	0	-0.5%	9
39	NC(=O)c1ccc(NC(=O)Cc2csc(-c3ccccc3)n2)cc1	-4	0.1	1.5	-2	0.6%	8
40	CCCOc1ccc(N2C(=O)CC(N(Cc3ccccc3)N=O)C2=O)cc1 (stereo not given)	-4	0.2	-1.1	-7	0.5%	-12
41	O=C(CCc1ccccc1)NC(=S)Nc1cccc(C(=O)O)c1	7	-0.7	-3.3	4	-0.5%	3
42	COc1ccc(-c2cc(=O)oc3cc(OC(C)C(=O)O)ccc23)cc1 (stereo not given)	-9	-0.5	-1.6	-8	5.4%[38.3 µM]	-7
43	CC(C)COC(=O)n1ccc(C(=O)N2CCCCC2)n1	-9	4.7	-1.0	5	-1.2%[38.3 µM]	-6
44	CCn1c(Cn2nnc(-c3ccccc3)n2)nnc1SCC(=O)Nc1ccc(N(C)C)cc1	-4	0.6	0.0	-4	.	13
45	O=C(CN1CCN(S(=O)(=O)c2ccc(Br)cc2)CC1)Nc1ccc(F)cc1	-5	0.1	1.9	-5	-1.0%	-3
46	CCOC(=O)c1sc2ccccc2c1OC(=O)c1ccc(C)cc1	-11	1.7	-1.1	-14	2.1%	4
47	COc1ccc(/C=C/c2ccc(=O)n(Cc3ccccc3)n2)cc1	-5	3.9	2.1	18	17%	13
48	OCCNc1nc(Cl)nc(NCc2ccco2)n1	-11	0.4	-1.0	6	-0.6%	6
49	CCN(CC(=O)Nc1ccc2c(c1)OCCO2)C(=O)/C=C/c1cccc(Br)c1	-15	2.1	-6.2	-10	14%	7
50	c1ccc(N2CC3COc4ccccc4C3=N2)cc1 (stereo not given)	-10	3.1	1.1	115	-0.8%	-6
51	CCN(CC(=O)Nc1ccc(OC)cc1)C(=O)c1ccc2c(=O)n3c(nc2c1)CCC3	-5	1.3	-0.9	4	0.4%	1
52	NNC(=O)c1cc(NS(=O)(=O)c2cccs2)cc(NS(=O)(=O)c2cccs2)c1	28	1.0	-1.4	-8	2.1%	-4
53	CO/N=C(/CNC(=O)c1cccc(Cl)c1)c1ccc(Cl)cc1	-13	1.5	-1.7	1	?	14
54	COc1ccccc1Cn1[nH]nnc1=S	-15	0.5	0.1	-1	0.5%	0
55	COc1cccc(Nc2nc(C)nc3c2oc2ccccc23)c1	-1	2.8	-1.1	-14	3.4%	-11
56	CCOc1ccc(-n2c(SCC(=O)Nc3cc(C)on3)nc3c([nH]c4ccccc43)c2=O)cc1	-2	0.2&0.5	-1.2	-7	2.3%&-1.5%	-3
57	O=C(COC(=O)COc1ccc(Cl)cc1)NC1CC1	-2	-0.8	-4.8	0	0.0%	.
58	Cc1ccc(S(=O)(=O)N2CCCCC2)cc1NC(=O)c1nn(C)c(=O)c2ccccc12	-1	-0.8	-1.8	0	0.9%	6
59	CCCCC(=O)N1CCCC(c2nc(-c3cccc(OC)c3)no2)C1 (stereo not given)	3	2.4	-1.1	4	3.8%	.
60	Cc1onc(C(=O)Nc2sc3c(c2C#N)CCCC3)c1[N+](=O)[O-]	-1	1.3	-0.8	1	-0.5%	.
61	Cc1cc(C(=O)N2CCCC2(C)C(=O)O)c(C)o1 (stereo not given)	-5	-0.1	-4.0	5	-0.4%	-12
62	COc1cc(NS(=O)(=O)c2ccc(NC(=O)C34CC5CC(CC(C5)C3)C4)cc2)ncn1	8	0.5	-1.3	10	0.3%	3
63	NS(=O)(=O)c1ccc(NS(=O)(=O)c2ccc3c(c2)OCCO3)cc1	-3	0.1	-3.3	-2	1.3%	3
64	COc1ccc(CNC(=O)C23CN(Cc4ccccc4)CC2C(c2ccc([N+](=O)[O-])cc2)=NO3)cc1 (stereo not given)	-4	-0.5	1.3	-20	-1.1%	-19
65	COc1ccc(CN(C(=O)c2ccc(C)cc2)c2cccc(N)c2)cc1	-16	-0.6	-2.2	1	0.1%	-11
66	COCCNC(=O)CN1C(=O)CSc2cc(S(=O)(=O)N3CCCCCC3)ccc21	-6	0.0	-5.5	8	1.5%	6
67	Cc1cc(C(=O)NCc2ccc3c(c2)OCO3)n(-c2ccccc2)n1	3	-0.2	0.2	3	-1.3%	7
68	CNc1nc(-c2ccc(Cl)cc2)cs1	-4	0.2	-2.1	0	0.0%	-1
69	CC(=O)OC1CCC2(C)C3=CCC4(C)C(C(C)=O)=CCC4C3CCC2C1 (stereo not given)	-3	-0.1	-2.3	5	-1.5%	-5

One compound at a time (already shown). Order of values: D2 potentiator	TRPML1 agonist	D2 agonist	Six1-Eya2 blk	PINK1 expr mod	CtBP-E1A blk
Listed for COCCNC(=O)CN1C(=O)CSc2cc(S(=O)(=O)N3CCCCCC3)ccc21 : -6	0.0	-5.5	8	1.5%	6
Listed for COc1ccc(CN(C(=O)c2ccc(C)cc2)c2cccc(N)c2)cc1 : -16	-0.6	-2.2	1	0.1%	-11
